Rce1 inhib – yeast Rce1p protease inhibitors, primary screen, biochemical, fluorescence, cell-free homogeneous; CAAX prenyl protease 2 (Saccharomyces cerevisiae (strain ATCC 204508 / S288c)), Q03530; yeast membranes, quenched prenylated peptide cleavage fluorescence; calls only; 0.27% of 290,000 active;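 active means fall in fluorescence gain of 50% or more versus controls, with final raw signal at or below 3038400; inconclusive means same 50% fall but final raw signal above 3038400; inactive means fall in fluorescence gain under 50%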;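 further: plate controls were neutral control wells for no effect and wells lacking membranes for full effect; tested at 10 µM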
Target sequence (Q03530 whole entry, looked up): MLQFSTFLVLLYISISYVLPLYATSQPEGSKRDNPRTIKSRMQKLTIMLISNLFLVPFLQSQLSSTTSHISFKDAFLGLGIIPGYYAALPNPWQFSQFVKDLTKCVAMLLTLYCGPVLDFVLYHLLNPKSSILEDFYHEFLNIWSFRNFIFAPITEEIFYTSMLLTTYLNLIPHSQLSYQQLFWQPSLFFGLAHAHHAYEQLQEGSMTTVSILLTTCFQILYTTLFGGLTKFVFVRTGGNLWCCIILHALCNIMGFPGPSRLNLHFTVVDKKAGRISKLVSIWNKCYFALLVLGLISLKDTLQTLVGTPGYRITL
eIF4H inh – human eIF4H binding inhibitors, primary screen, translation initiation inhibitor project, biochemical, uHTS, fluorescence polarization | AID 2012, 2009 | 0.94% of 290,000 active | inhibition, % at 35 µM | eIF4H fluorescence polarization binding assay;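 active means 50% or more with normal probe brightness, or confirmed in later tests; inconclusive means above 50% with abnormal brightness, or retests that disagree; inactive means below 50% or failed in later tests; about a fifth of its hits are not listed in these tables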;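 further: calls also rest on retests at 20 µM and on dose response follow-up; 0% = protein and probe with vehicle and 100% = probe without protein; strong numbers were not always called active; many hits fall short of the cut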
MT1-MMP act inh – blockers of MT1-MMP proenzyme processing, primary screen, HT1080 RFP-PRO-GFP cells, GFP/RFP fluorescence; Matrix metalloproteinase-14 (Homo sapiens), P50281; 0.061% of 360,000 active; GFP/RFP ratio change, % at 20 µM; GFP/RFP ratio fluorescence, overnight; percent of plate control window, DMSO zero; AID 651647, 2012;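 active means GFP/RFP ratio change of at least 30% with cell ATP level not reduced by more than half and red fluorescence within 50% of control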; further: strong numbers were not always called active
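Material: RFP-PRO-GFP reporter HT1080 cells. Dosing: single-point 20 µM compound, 1% DMSO. Controls: DMSO and RFP-L50D-GFP cell wells. Timing: cells overnight before dosing, compound overnight, 37 °C, 5% CO2. Measure: GFP/RFP fluorescence ratio.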
PABP FP inh – PABP poly(A) RNA binding inhibitors, primary screen, biochemical, fluorescence polarization, uHTS; 1% of 290,000 active; inhibition, % at 35 µM; Polyadenylate-binding protein 1 (Homo sapiens), P11940;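 active means 50% or more with normal probe brightness, or confirmed in later tests; inconclusive means above 50% with abnormal brightness, or retests that disagree; inactive means below 50% or failed in later tests; about a fifth of its hits are not listed in these tables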;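 further: calls also rest on retests at 20 µM and on dose response follow-up; controls were probe without protein and protein plus probe with vehicle; some compounds called inactive have numbers as strong as hits; many hits fall short of the cut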
Target sequence (P11940 whole entry, looked up): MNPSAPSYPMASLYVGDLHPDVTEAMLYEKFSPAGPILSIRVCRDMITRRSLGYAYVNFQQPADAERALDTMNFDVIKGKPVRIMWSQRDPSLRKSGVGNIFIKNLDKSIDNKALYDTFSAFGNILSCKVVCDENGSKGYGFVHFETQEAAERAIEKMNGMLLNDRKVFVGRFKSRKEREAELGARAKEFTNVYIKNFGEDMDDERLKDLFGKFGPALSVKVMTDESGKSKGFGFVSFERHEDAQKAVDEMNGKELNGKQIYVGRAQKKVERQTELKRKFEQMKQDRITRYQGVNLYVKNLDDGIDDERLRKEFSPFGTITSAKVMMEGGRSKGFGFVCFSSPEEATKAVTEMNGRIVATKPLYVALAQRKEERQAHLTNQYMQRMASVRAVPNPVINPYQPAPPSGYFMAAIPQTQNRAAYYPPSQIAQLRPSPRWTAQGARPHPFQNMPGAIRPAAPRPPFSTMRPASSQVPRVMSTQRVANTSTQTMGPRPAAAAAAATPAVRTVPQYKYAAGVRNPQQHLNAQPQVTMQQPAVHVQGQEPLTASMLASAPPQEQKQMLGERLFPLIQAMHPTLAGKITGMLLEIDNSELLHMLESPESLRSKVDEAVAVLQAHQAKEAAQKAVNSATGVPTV
CSC inhib – cancer stem cell viability inhibitors, primary screen, luminescence. cancer stem cell-like cells viability. inhibition, % at 7.5 µM. 1.1% of 300,000 active;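 active means mean at 75% or more and at least half the replicates too; inconclusive means mean and replicates disagree; tested in HMLE shEcad cells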;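 further: 0% = median of negative and 100% = median of positive control wells; the first replicate is given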
Yeast UUG start – modulators of yeast start codon fidelity, primary screen, whole organism, S. cerevisiae, single point, plate reader; 0.13% of 350,000 active; activity score, % at 18.7 µM; AID 602363, 2012; S. cerevisiae UUG-firefly luciferase reporter, luminescence/redox ratio;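 active means replicate mean at a twofold rise or more, about +100% in these data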;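 further: firefly luciferase made from a UUG start codon reports start codon fidelity; reporter light over untreated wells divided by growth signal over untreated wells; some hits fall short of that in this replicate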
Env fusion inh – inhibitors of HIV-1 Env-driven cell-cell fusion, primary screen, HeLa-JRFL effector, CEM21 target cells, luciferase | inhibition, % at 12.3 µM | 1.1% of 360,000 active | AID 651610, 2012;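 active means mean replicate inhibition score of at least 50 and every replicate individually at or above 50; inconclusive means only one of the two criteria met; inactive means mean below 50 and not all replicates reaching 50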;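 further: 0% = plate neutral controls and 100% = maraviroc near 300 nM; one replicate is shown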
eIF4H inh retest – also measured in eIF4H inh; calls as there; inhibition, %; compound at 20 µM; confirmation average;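 mean of two retest wells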
PABP FP inh retest – recorded beside PABP FP inh, whose call it bears; inhibition, %; compound at 20 µM; confirmation repeats;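 mean of two retest wells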
MT1-MMP act inh RFP – recorded beside MT1-MMP act inh, whose call it bears; RFP signal change, %; measured here: RFP expression control read;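 0 = vehicle wells; hits needed this value within 50% of zero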
The depositor's hits bear a star; i = inactive; u = inconclusive; x = no result given; + = active, no number. Rows were taken by chance. About 2.9% of those tested had a hit in this group.

SMILES	Rce1 inhib	eIF4H inh	MT1-MMP act inh	MT1-MMP act inh RFP	PABP FP inh	CSC inhib	Yeast UUG start	Env fusion inh	others
COc1ccc2nc(SCC(=O)Nc3ccc4[nH]c(=O)[nH]c4c3)[nH]c2c1	x	x	6	2	x	-3	-23	x
O=[N+]([O-])c1ccc(NC(=S)N2CCN(c3ccccn3)CC2)cc1	i	-4	6	0	-7	28	-35	7
CCN(c1ccc(OC)cc1)S(=O)(=O)c1nnc(NC(=O)C(C)C)s1	i	-18	4	3	-7	7	-15	-9
COC(=O)C1CN(C(=O)C(C)Oc2ccc(C(C)C)cc2)c2ccccc2O1 (stereo unspecified)	i	-3	-10	-1	-2	-9	-10	17
CC(=O)N1N=C(c2ccccc2O)OC1(C)CC(=O)Nc1ccccc1 (stereo unspecified)	i	0	3	6	7	6	x	x
CCOC(=O)C1C(c2ccccc2)N(C)OC1(O)C(F)(F)F (stereo unspecified)	i	3	-2	3	23	-8	x	6
CNc1nc2c(c(=O)[nH]c(=O)n2C)n1CCCc1ccccc1	i	-2	7	5	5	-5	-7	-4
CC1(C)Cc2c(sc3c2c2ncnn2c2nnc(SCC(=O)NCc4ccco4)n32)CO1	i	-5	6	1	16	x	4	x
NC(=O)c1cccc(-c2coc3c(C(=O)NCc4ccccc4)cccc23)c1	x	x	2	-13	x	x	-3	15
NC(=O)c1cc(NC(=O)COC(=O)CCCN2C(=O)c3cccc4cccc(c34)C2=O)cc(C(N)=O)c1	x	x	-5	-3	x	-1	x	-3
CC(C)CC1Nc2ncnc(N3CCN(c4ccccc4)CC3)c2N(Cc2ccc(Br)cc2)C1=O (stereo unspecified)	i	x	-12	-14	x	16	-14	11
O=C(/C=C/Nc1ccc(Br)cc1F)c1ccccc1	i	5	-3	1	4	13	x	-76
CCC1CCc2sc(C(=O)NCC(c3ccc(OC)cc3)N3CCCC3)cc2C1 (stereo unspecified)	i	x	-7	-2	x	-1	-2	-40
Cc1ccc(C(=O)N(CC(=O)NC2CCCC2)c2cccc(F)c2)s1	i	3	4	2	-1	6	-13	-26
O=C(CN1c2cccc3cccc(c23)S1(=O)=O)NCc1ccccc1Cl	x	x	0	-1	x	x	-11	-24
Cc1ccc(CNC(=O)[C@]2(C)CCC[C@@]3(C)C4CC[C@@]5(C)C[C@]4(CCC32)CC5=O)cc1 (stereo partly specified)	x	x	3	-6	x	x	-8	11
O=c1c2c3c(sc2ncn1/N=C/c1ccc([N+](=O)[O-])o1)CCCC3	i	7	6	6	-5	103*	-9	x
CCCCOCCCNC(=O)C1c2ccccc2Oc2ccccc21	i	-15	-3	-5	-7	1	-8	-9
CC(=O)n1cc(/C=N/NC(=O)c2cccc(O)c2)c2ccccc21	i	-6	9	5	7	-2	-7	-24
CSCc1cc(N2CCOCC2)nc(SCc2ccc(Cl)cc2Cl)n1	i	-2	-8	-10	10	26	-26	47
COc1cc(OC)c(C(=O)OCC(=O)Nc2ccccc2Cl)cc1OC	i	-12	2	1	4	-12	-6	16
CCOc1cc(/C=N\NC(=O)OC(C)(C)C)ccc1OC(=O)c1ccco1	i	-10	3	3	-10	-8	x	8
Cn1c(-c2sc3cc(C(F)(F)F)cnc3c2-c2ccccc2)n[nH]c1=S	i	2	6	5	-3	-14	x	x
c1cc(-c2nnc3sc(C4CCCCC4)nn23)ccn1	i	-2	-15	-7	13	-17	-18	63*
COc1ccccc1NS(=O)(=O)c1cc(NC(=O)Cn2cnc3c2c(=O)n(C)c(=O)n3C)ccc1C	i	6	2	10	6	0	x	-16
COc1ccc(NC(=O)CSc2nnc(-c3cc(C)[nH]n3)n2N)cc1OC	i	-7	-2	1	-1	-11	-5	-1
Cn1c(SCc2nn[nH]n2)nc2c1c(=O)n(Cc1ccccc1Cl)c(=O)n2C	i	10	0	5	-5	-8	-27	-10
COC(=O)c1cc(NC(=O)C2CC2)cc(C(=O)OC)c1	x	0	1	-1	-12	-7	-22	-4
Cc1ccc(CC2CC(=O)N(c3cc(C)on3)C2=O)cc1 (stereo unspecified)	i	-9	-5	-2	-4	-12	-10	-7
Cc1ccc(S(=O)(=O)CCC(=O)NCc2ccco2)cc1	i	15	9	3	-2	-3	-5	x
COc1ccc(CNC(=O)C2CCN(c3cc(C(=O)Nc4cccc(OC)c4)ccn3)CC2)cc1	i	-8	4	-9	-4	-9	-9	-2
CCN(CC)S(=O)(=O)c1csc(C(=O)OCC(=O)c2ccccc2)c1	x	-1	4	5	-1	-14	-13	1
CCCNC(=O)C(=O)N/N=C/c1cccs1	i	2	-2	5	-11	-10	-26	x
O=C(c1ccc(CSc2ccccc2)cc1)N1CCN(c2ccccc2)CC1	i	0	0	-3	-21	+	-6	-8
COc1ccc(C2/C(=C(/O)c3ccc4c(c3)CC(C)O4)C(=O)C(=O)N2CCN2CCOCC2)cc1OC (stereo unspecified)	i	0	-1	3	5	x	-10	9
COCCOC(=O)c1c(C)oc2ccc(OCc3ccccc3)cc12	i	6	0	2	8	x	x	1
CC(C)C(C(=O)NCC1CCCO1)N(CC1CCCO1)C(=O)CNS(=O)(=O)c1ccccc1 (stereo unspecified)	x	-11	-4	1	-3	0	3	-4
Cc1nnsc1S(=O)c1ccc(F)cc1 (stereo unspecified)	i	-2	-1	0	-4	8	-12	14
COCCCNC(=O)c1cc2c(=O)n3cc(C)ccc3nc2nc1NCC1CCCO1 (stereo unspecified)	i	6	x	x	-2	x	x	x
CCN(CC)S(=O)(=O)c1ccc2c(c1)oc(=O)n2CC(=O)N(C)C1CCCCC1	i	6	1	-3	16	-3	-8	-1
COc1ccc(N2C(=O)N3[C@H](c4cccc(C)c4)[C@@H]4C(=O)N(Cc5ccccc5)C(=O)[C@@H]4[C@]3(Cc3ccccc3)C2=O)cc1	i	10	x	x	7	-7	x	86*
Cc1ccc(Sc2cc(C(=O)NCCCN(C)C)c3ccccc3n2)cc1	i	-4	-4	-2	-9	3	-13	26
CCCCN(CC(O)COc1cccc(C)c1)CC(O)COc1cccc(C)c1 (stereo unspecified)	i	7	4	6	2	x	2	41
CCCCOC(=O)C1C2C=CC3(CN(CCc4ccccc4)C(=O)C13)O2 (stereo unspecified)	i	2	-2	1	-2	x	0	-14
CCC(C)(C)C1CCc2[nH]nc(C(=O)NC(C)C)c2C1 (stereo unspecified)	x	x	0	-4	x	1	-23	21
O=C(O)CC1SC(N/N=C/c2ccc(Br)cc2)NC1=O (stereo unspecified)	i	2	-1	1	13	5	x	-8
C/C(=N\OCC(=O)NCC(F)(F)F)c1cc2ccccc2o1	i	2	1	2	-6	0	x	x
COc1ccc(OC)c(NC(=O)CSc2nnc(-c3ccco3)n2-c2ccc(C(=O)O)cc2)c1	i	-4	-4	-3	0	-7	-16	-22
COc1ccc(-c2csc(NC(=O)c3ccccc3S(C)(=O)=O)n2)cc1	i	-11	1	-8	-1	-10	x	15
CC(C)CNC(C)C(=O)Nc1ccc(S(N)(=O)=O)cc1 (stereo unspecified)	x	1	2	8	9	-8	x	3
COc1cccc(C(NC(C)=O)c2nc(-c3ccc(F)c(Cl)c3)cs2)c1 (stereo unspecified)	x	x	1	-2	x	x	-21	-26
Cn1c(C(=O)O)c(CC(=O)NCC2COc3ccccc3O2)c2ccccc21 (stereo unspecified)	i	5	1	1	4	2	-1	6
Cc1c(Cl)cccc1NC(=O)c1ccco1	i	-12	0	-1	4	1	-13	9
O=C(CSc1ccc2c(c1)OCCO2)NCCc1ccc(Cl)cc1Cl	i	-12	-1	-1	5	-1	-14	8
CN1CCN(c2cc(-c3ccc4ccccc4c3)nc3ccnn23)CC1	x	x	16	7	x	x	-35	7
CC(C)c1ccc(CNc2c([N+](=O)[O-])c(=O)oc3ccccc23)cc1	i	-5	2	-5	-3	-15	-7	13
CCc1ccc(N(CC(=O)NC2CCCCC2)C(=O)CCC(=O)Nc2ccccn2)cc1	i	-18	-2	-2	-1	-33	-4	10
O=c1oc2ccc(Cl)cc2cc1-c1nnc(Nc2cccc(C(F)(F)F)c2)s1	i	-6	-1	1	-7	-4	-14	-9
COc1ccc(NC(=O)c2ccc(C#CC(C)(C)O)cc2)cc1	i	-3	0	0	7	-16	x	16
N#CC1=C(N)SC(N)=C(C#N)C1c1ccoc1	i	122	x	x	118	22	x	x	eIF4H inh retest=-3;PABP FP inh retest=4

(listing goes on)
SMILES	Rce1 inhib	eIF4H inh	MT1-MMP act inh	MT1-MMP act inh RFP	PABP FP inh	CSC inhib	Yeast UUG start	Env fusion inh	others
CC(=O)N1CCN(S(=O)(=O)c2ccccc2)C1c1ccccc1 (stereo unspecified)	i	0	3	7	8	2	-16	-11
Cc1ccc2[nH]c3c(c2c1)CCN1C(=O)OC(C)(C)C31C (stereo unspecified)	i	-3	-1	0	10	1	x	-4
COCCCNC(=O)c1ccccc1N(Cc1ccccc1)S(=O)(=O)c1ccccc1	i	-3	-3	3	18	-20	-2	28
COc1ccc(NC(=O)COC(=O)CCNS(=O)(=O)c2ccc(Cl)cc2)cc1	i	-3	-1	4	11	8	x	-1
COc1ccc(CCNC(=O)CS(=O)(=O)c2cn(CC(=O)N3CCCC3)c3ccccc23)cc1OC	i	-4	-1	2	24	2	x	10
O=C(c1cccc(S(=O)(=O)Nc2ccc(Br)cc2)c1)N1CCC1	i	-4	2	1	4	x	23	-12
S=C1NCCC12C(=S)Nc1ccccc12 (stereo unspecified)	i	x	4	4	x	-8	-19	x
CCn1c(C)c(C(C)=O)c(N2CCN(C(c3ccccc3)c3ccccc3)CC2)nc1=S	i	20	-39	-23	-6	1	x	3
COc1ccc(C(=S)N2CCN(S(=O)(=O)c3ccccc3)CC2)cc1	i	11	-2	-3	17	-8	-18	1
Cc1cccc(N2C(=O)c3cccc4c(N(C)CCO)ccc(c34)C2=O)c1	i	u	-280	2	u	-19	-17	x
O=C(CS(=O)(=O)c1ccccc1)Nc1nc2ccccc2s1	i	-3	-7	-4	-10	x	-22	-14
O=C(CNC(=O)OCc1ccccc1)NC1(C(=O)O)CCCC1	x	x	-7	-2	x	x	-14	0
O=C(CCC(=O)OCc1ccc([N+](=O)[O-])cc1Cl)Nc1ccccc1	i	0	-2	4	-2	-7	-19	0
CC(=O)c1ccc(S(=O)(=O)N2CCNCC2)cc1	x	64	0	-3	7	-10	-11	-2	eIF4H inh retest=17;PABP FP inh retest=19
O=C(Nc1cccc(C(F)(F)F)c1)c1cc(Br)cc2c1OCC2	x	-15	-4	1	1	9	x	4

Part of the list above in order of SMILES length, ascending.
SMILES	Rce1 inhib	eIF4H inh	MT1-MMP act inh	MT1-MMP act inh RFP	PABP FP inh	CSC inhib	Yeast UUG start	Env fusion inh	others
O=C(c1cccc(S(=O)(=O)Nc2ccc(Br)cc2)c1)N1CCC1	i	-4	2	1	4	x	23	-12
COc1ccc(C(=S)N2CCN(S(=O)(=O)c3ccccc3)CC2)cc1	i	11	-2	-3	17	-8	-18	1
COc1ccc(CCNC(=O)CS(=O)(=O)c2cn(CC(=O)N3CCCC3)c3ccccc23)cc1OC	i	-4	-1	2	24	2	x	10

Bioassay records: PubChem, several laboratories
